GLA inh pH 4.5 = alpha-galactosidase A (human) inhibition, pH 4.5; P06280; purified enzyme, 4-MU-alpha-Gal fluorescence, pH 4.5; activity change, negative = inhibition, % at 105 µM; 230,000 tested, under 10 active; AID 1467; inconclusive = small, poorly fitted or top-dose-only inhibition, or a rising curve; inactive = flat fitted curve, though single readings scatter; no compound was filed as active;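 also: 0% = full activity with enzyme and -100% = basal without enzyme; dose as in the result columns while the protocol names 77 µM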
Rango release inh = prevents RanGTP from dissociating the Rango-importin beta complex; O95149+P62826; Biochemical FRET Rango-importin beta, RanGTP-induced dissociation; Potency, µM (highest dose often 46.1 µM), for the others: at the highest dose activity change, negative = inhibition; 340,000 tested, 0.071% active; AID 540253; active means falling FRET ratio curve, often poorly fitted, with flat reads before Ran was added; inconclusive means other falling curves, or compound fluorescence or quenching; inactive means flat or rising ratio curve;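 also: potency is read from the fitted curve at half-maximal effect; % of control where 0% means no effect; nearly all actives have a fitted effect of over 45% in size; -100% = wells without RanGTP and RCC1; the record marks most hits as doubtful in a second field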
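Rango/importin beta premix (0.1/0.25 uM final), PBS + 1 mM DTT + 0.02% Tween-20 + 0.1% BSA; cpd 5 min RT; FRET pre-read; + RanGTP-RCC1 (0.6 uM Ran, 2 mM GTP, 0.2 uM RCC1); 45 min RT; FRET post-read, ex 430, em 486/530 nm.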
miR-21 reporter = miR-21 reporter, rising signal. HeLa miR-21 FLuc reporter, luciferase, 48 h. Potency, µM (doses to about 38.3 µM), inactives show top-dose reporter change, positive = more light. 340,000 tested, under 10 active. AID 2288; active = well fitted rising curve with a large enough effect; inconclusive = small, poorly fitted or top-dose-only effect; inactive = no such curve, though single readings can be large or run the other way;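 also: % of control where 0% means no effect; miR-21 action dims this reporter so a rising signal means less miR-21 action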
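Luminescence from a firefly luciferase reporter carrying a miR-21 binding site downstream, stably expressed under a CMV promoter in HeLa cells that make miR-21 endogenously, reports miRNA modulation after 48 h compound exposure up to approximately 40uM final.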
Rango-impB inh = Rango-importin beta binding inhibition. Rango CFP/YFP FRET sensor + importin beta, 45 min. AID 540263. Q14974. 340,000 tested, 0.031% active. Potency, µM (highest dose often 92.2 µM), for inactives: at the top dose inhibition of complex formation; active = rising FRET ratio curve, often small or poorly fitted; inconclusive = mostly compound fluorescence or quenching in the first reads; inactive = flat curves in all reads;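 also: potency is read from the fitted curve at half-maximal effect; 0% = DMSO wells and 100% = buffer wells lacking importin beta; nearly all actives have a fitted effect of over 15% in size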
Target sequence (Q14974 whole entry, looked up): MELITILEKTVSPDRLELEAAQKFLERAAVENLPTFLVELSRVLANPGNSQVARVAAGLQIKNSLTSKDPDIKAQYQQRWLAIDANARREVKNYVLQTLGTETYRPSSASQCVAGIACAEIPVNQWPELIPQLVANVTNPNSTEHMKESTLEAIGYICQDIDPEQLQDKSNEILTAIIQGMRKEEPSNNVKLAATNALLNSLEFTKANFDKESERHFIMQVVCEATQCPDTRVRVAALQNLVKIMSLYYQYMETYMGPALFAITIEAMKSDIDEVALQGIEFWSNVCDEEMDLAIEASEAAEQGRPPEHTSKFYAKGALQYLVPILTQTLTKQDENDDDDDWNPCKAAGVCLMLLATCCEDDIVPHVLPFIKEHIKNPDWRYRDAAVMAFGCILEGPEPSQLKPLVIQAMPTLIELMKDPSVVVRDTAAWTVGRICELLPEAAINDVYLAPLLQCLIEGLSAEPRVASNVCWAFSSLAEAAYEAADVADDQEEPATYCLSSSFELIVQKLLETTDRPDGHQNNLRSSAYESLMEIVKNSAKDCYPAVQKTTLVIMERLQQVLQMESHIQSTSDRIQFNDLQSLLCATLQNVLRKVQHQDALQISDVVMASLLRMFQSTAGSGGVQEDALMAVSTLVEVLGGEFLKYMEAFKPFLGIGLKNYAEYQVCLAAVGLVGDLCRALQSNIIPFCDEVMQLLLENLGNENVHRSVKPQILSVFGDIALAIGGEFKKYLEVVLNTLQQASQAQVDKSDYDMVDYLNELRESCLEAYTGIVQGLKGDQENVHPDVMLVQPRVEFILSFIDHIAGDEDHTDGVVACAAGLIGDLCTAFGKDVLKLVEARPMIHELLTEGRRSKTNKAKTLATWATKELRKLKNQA
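Inhibition scored from the CFP 486 nm/YFP 530 nm FRET ratio 45 min after adding 0.125 microM importin beta to 50 nM Rango biosensor preincubated 5 min with compound (room temperature, PBS with DTT, Tween-20, BSA). No-importin wells as positive control.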
An asterisk follows results filed as active; ? = inconclusive; nt = no result given; & = joins results of further samples; [ ] = dose if it differs, or a comment.

Values in the order: GLA inh pH 4.5	Rango release inh	miR-21 reporter	Rango-impB inh
CC1=C(C(=O)N2CCOCC2)C(c2c(F)cccc2F)NC(=O)N1 (centres undefined)
 : 6	16%	1%	4.7%
O=Cc1ccccc1Oc1nc(N2CCOCC2)nc(N2CCOCC2)n1
 : -21	6%	-1%	?
CN1C(=O)N(CC(=O)Nc2cccc(S(=O)(=O)N(C)c3ccccc3)c2)C(=O)C12CCCCC2
 : nt	12%	nt	1.3%
O=C(N/N=C/c1ccco1)c1cc(-c2ccncc2)nc2ccccc12
 : nt	-14%	14%	-0.2%
CCC(=O)c1ccc(OCC(O)CNC2CCCC2)cc1 (centres undefined)
 : nt	-5%	-1%	-1.3%
CCN(CC)CCNc1nc(SC)nc2sc3c(c12)CCN(C)C3
 : nt	-9%	-17%	?
CCCCN=CC1=C(O)CC(c2ccccc2)CC1=O (centres undefined)
 : -2	-3%	4%	0.8%
O=C(CN1CCCCC1)Nc1cccc(Cl)c1Cl
 : 0	2%	-10%	-0.9%
[O-]C1=N/[N+](=C/c2ccccc2)CC1
 : 10	2%	5%	-0.2%
Nc1nc(N)nc(-c2cc(O)ccc2O)n1
 : nt	-10%	nt	?
COc1ccc(OC)c2c1sc(=NC(=O)C(C)(C)C)n2C
 : 3	10%	-6%	-2.0%
O=C(CN1CCN(c2ccccc2)CC1)Nc1ccc(-n2cnnn2)cc1
 : -1	-7%	-8%	-0.6%
COC(=O)c1sc(NC(C)=O)c(C(=O)OC)c1C
 : -9	1%	1%	-1.1%
c1ccc(OCCN2CCN(Cc3nc(-c4ccc5c(c4)OCO5)no3)CC2)cc1
 : 3	1%	-5%	-0.4%
Cc1sc2ncnc(N3CCN(S(=O)(=O)c4ccc(F)cc4)CC3)c2c1C
 : nt	-13%	14%	-2.9%
CCOc1ccccc1CN1CCCC(C(=O)Nc2cccc(-n3cccn3)c2)C1 (centres undefined)
 : nt	12%	?	-2.7%
COCCNc1nnc(Cc2ccc(Cl)cc2)c(=O)[nH]1
 : nt	-6%	-4%	?
COc1ccc(-n2nc(C(=O)NCC(=O)NCc3ccc(F)cc3)c3ccccc3c2=O)cc1OC
 : nt	5%	-9%	-0.9%
Cc1cc(C(=O)NNC(=O)c2cccs2)c(C)o1
 : nt	-9%	nt	3.7%
O=C(NNC(=S)Nc1cccc(Cl)c1)c1ccccc1
 : nt	?	-54%	5.0%
CCOc1ccc(NC(=S)N2CCN(C/C=C/c3ccccc3)CC2)cc1
 : -13	-7%	0%	1.3%
CN(Cc1ccccc1)Cc1c(F)cccc1F
 : 0	-7%	1%	-3.7%
CC1CCc2nc(N)c(C#N)c(-c3cccnc3)c2C1 (centres undefined)
 : 3	-3%	20%	-4.0%
CCc1nnc(NC(=O)c2cccc(S(=O)(=O)N3CCCCC3)c2)s1
 : nt	7%	2%	-0.1%
CS(=O)(=O)N(CC(=O)N1CCOCC1)c1ccc2c3c(cccc13)CC2
 : 5	-8%	3%	0.0%
Cc1ccc(S(=O)(=O)N(C)C)cc1NC(=O)C(C)N(C)Cc1sccc1C (centres undefined)
 : nt	-6%	19%	1.4%
COc1cc(CCC(=O)OCC(=O)N2CC(=O)Nc3ccccc32)cc(OC)c1OC
 : nt	-7%	nt	-4.3%
CNc1cc([N+](=O)[O-])ccc1N/C=C/C(=O)c1ccc2c(c1)OCO2
 : -9	-14%	-35%	-4.0%
CN(NC(=O)c1c(Cl)cccc1Cl)c1cccc(Cl)n1
 : -4	27%	-6%	1.4%
CSc1nnc2c(n1)OC(C)=Nc1ccccc1-2
 : -4	9%	-5%	0.3%

Following part
Values in the order: GLA inh pH 4.5	Rango release inh	miR-21 reporter	Rango-impB inh
O=C(NC1CCCC1)c1ccc(CS(=O)(=O)Cc2ccccc2Cl)o1
 : nt	-19%	-2%	4.7%
COc1ccc(OC)c(NC(=O)CSc2nnc(CNC(=O)COc3ccc(Cl)cc3)o2)c1
 : 1	2%	-2%	-1.9%
O=C1NC(c2ccccc2)(C(F)(F)F)C(=O)N1Cc1cccnc1 (centres undefined)
 : -3	2%	6%	-1.6%
COC(=O)c1ccc(NC(=O)CNC(=O)C2CCCCC2)cc1
 : 0	-1%	-12%	-0.1%
COc1ccc(OC)c(/C=N\NC(=O)c2c(C)nc3cc(C)ccn23)c1
 : nt	-9%	-1%	-3.6%
CCc1ccc(N(CC(=O)NC2CCCCC2)S(=O)(=O)c2c(C)noc2C)cc1
 : 4	10%	-4%	1.1%
O=C(NCCCN1CCOCC1)c1ccc(Cl)s1
 : 10	-7%	-7%	-2.2%
C[C@@H]1[C@H]2[C@@H](O[C@@H]3O[C@H](CO)[C@@H](O)[C@H](O)[C@H]3O)OC=C(C(=O)O)[C@H]2C[C@@H]1O
 : nt	0%	nt	3.7%
OC1CCC(NC(=S)Nc2ccc(SC(F)F)cc2)CC1 (centres undefined)
 : 1	-1%	-43%	2.7%
Cc1nc(SCc2nc3ccc(C(=O)c4ccccc4)cc3[nH]2)c2oc3ccccc3c2n1
 : nt	-3%	nt	?
CC[C@@H]1[C@H]2CCCC(=O)N3CC[C@@H](C[C@@H]1Nc1ccccc1)[C@@H]23
 : nt	-14%	5%	-0.2%
CC(C)=CCC/C(C)=C/CNC(=O)C[C@H]1C[C@H](C(=O)N2CCOCC2)[C@@]2(C)c3[nH]c4cc(CCC(=O)N(C)C)ccc4c3CCN2C1=O
 : nt	0%	nt	0.2%
CCc1cc2ccc(C)c(C)c2nc1SCC(=O)Nc1cc(C)on1
 : nt	2%	2%	0.3%
O=C(Nc1cc(Sc2nc3ccccc3s2)cc([N+](=O)[O-])c1)c1cccc(F)c1F
 : -9	-5%	7%	-3.8%
COc1ccc(S(=O)(=O)N2CCCCC2)cc1NC(=O)c1cccc(S(=O)(=O)N2CC(C)OC(C)C2)c1 (centres undefined)
 : nt	7%	nt	-2.0%
COc1ccccc1N1CC(C(=O)Nc2ccc(C)c(S(=O)(=O)N3CCOCC3)c2)CC1=O (centres undefined)
 : nt	5%	nt	-0.3%
CCOC(=O)C[C@H]1c2cc(F)ccc2S(=O)(=O)N1c1ccccc1
 : nt	1%	nt	1.7%
CCN1CCN(c2cc(C)c3cc(NC(=S)NCCN(C)C)ccc3n2)CC1
 : nt	-8%	-19%	-2.4%
C=CCOc1cccc(CNCc2ccncc2)c1
 : nt	14%	7%	-3.9%
CCCn1ncc(CN2CCN(CCc3ccccc3)C(CCO)C2)c1C (centres undefined)
 : 1	14%	-2%	-0.2%
COc1ccc(CCNC(=O)C2CC(=O)N(CCc3ccccc3)C2)cc1OC (centres undefined)
 : 1	0%	-5%&-2%	-1.5%
CCCN1CCN(CCCNC(=O)c2ccc3c(=O)n(CCc4ccccc4)c(=O)[nH]c3c2)CC1
 : nt	1%	5%	-0.1%
CC(C)(C)C(O)C(Cc1ccccc1Cl)n1cncn1 (centres undefined)
 : nt	1%	0%	-1.0%
COc1ccccc1NC(=O)c1ccc(-n2cccn2)c([N+](=O)[O-])c1
 : 2	-16%	-16%	1.7%
CCn1c(SCC(=O)NCc2ccc3c(c2)OCO3)nnc1-c1ccncc1
 : 5	3%	1%	-1.4%
COc1ccc(-n2c(=O)c3c4c(sc3n(CC(=O)Nc3cc(C)[nH]n3)c2=O)CCCC4)c(OC)c1
 : -5[21.1 µM]	5%	3%	?
CCOP(=O)(OCC)C(NC(=O)c1ccc(OC)cc1)c1ccccc1 (centres undefined)
 : -8	-6%	-1%	0.4%
N#C/C(=C\c1ccc(O)c(Br)c1)C(=O)N1CCCCC1
 : nt	?	-13%	?
CCN=c1scc(-c2ccc3c(c2)NC(=O)CO3)n1N=C1CCCC1
 : 3	-22%&-29%	?	?
O=C(NC1CCN(Cc2ccccc2)CC1)c1ccccc1OCc1ccccc1
 : nt	-1%	3%	-0.7%

Other compounds.
Values in the order: GLA inh pH 4.5	Rango release inh	miR-21 reporter	Rango-impB inh
O=C(Nc1ccc2c(c1)OCO2)NC1CCN(Cc2ccccc2)CC1
 : 3	-13%	-21%	-1.6%
CCCSc1nnc(NC(=O)Nc2ccc(C)cc2)s1
 : 2	20%	-16%	-0.8%
CN(C)C=NC(=O)c1cc(C(=O)c2ccccc2)c[nH]1
 : 3	3%	0%	2.8%
CSCCC(NC(=O)c1ccccc1Cl)C(=O)Nc1cccc(S(=O)(=O)N2CCCC2)c1 (centres undefined)
 : nt	20%	nt	-1.3%
COc1ccc(CCC(=O)Nc2ccc(Cl)c(S(=O)(=O)N3CCCC3)c2)cc1
 : -11	0%	26%	-5.4%
Brc1ccc(-c2nnc(-c3ccco3)o2)cc1
 : 0	3%	-51%	-5.5%
O=C(O)c1ncn(Cc2ccc(Br)cc2)c1C(=O)O
 : 4	-5%	-2%	5.2%
Cc1ccc(S(=O)(=O)c2c(C)cc(C)nc2Oc2cccc(C)c2C)cc1
 : 3	19%	-1%	-0.6%
CC(C)(C)C1CCc2onc(C(=O)NCc3ccc(F)cc3)c2C1 (centres undefined)
 : -15	-9%	-2%	-3.4%
CCOc1ccc(Oc2ccc(C(F)(F)F)cc2NC(=O)C2=COCCO2)cc1
 : nt	-2%	nt	-0.9%
Cc1ccc(C)c(NC(=O)CC2Sc3ccccc3NC2=O)c1 (centres undefined)
 : nt	1%	nt	-0.4%
Cc1ccccc1NC(=O)Cc1nc(COC(=O)CSc2ccccc2)cs1
 : nt	1%	-8%	2.0%
O=C(Cc1cccs1)NCCN1CCOCC1
 : -7	2%	-2%	-1.7%
CCOc1ccccc1NC(=O)N1CCCC(c2nc(-c3ccc(C)o3)no2)C1 (centres undefined)
 : 5	-21%	-9%	?
Cc1ccc(C)c(S(=O)(=O)N2CCCOC2CNC(=O)C(=O)NCc2ccccc2)c1 (centres undefined)
 : nt	-7%	7%	-0.4%
COc1ccc(CN(C)CC(=O)Nc2cccc3ccccc23)cc1F
 : nt	-8%	-5%	-1.1%
O=C(NNS(=O)(=O)c1ccc2ccccc2c1)C1CCN(Cc2ccccc2)CC1
 : 4	0%	-3%	0.7%
O=C(NCCCn1ccnc1)/C(=C/c1cccs1)NC(=O)c1ccco1
 : -1	9%	-1%	16%
CCN1CCN(C(c2cccnc2)c2c(NC(=O)c3ccco3)sc(C)c2C)CC1 (centres undefined)
 : nt	-3%	nt	-1.4%
O=S(=O)(c1ccc(Cl)cc1)N1CCN(C(=S)Nc2ccccc2F)CC1
 : 2	-2%	1%	-2.9%
Fc1ccc(Nc2nc(N3CCOCC3)c3ccccc3n2)cc1
 : 4	5%	10%	-4.1%
COc1nc(Oc2ccc(=O)n(C)n2)nc(N(C)C)n1
 : 0	-8%	-7%	-2.7%
CCN1CCN(c2ccc(S(=O)(=O)N3CCCCC3)cc2NC(=O)/C=C/c2ccc([N+](=O)[O-])cc2)CC1
 : nt	1%	nt	0.8%
O=C(Nc1ccc(S(=O)(=O)NC2=NCCCCC2)cc1)c1cccc(S(=O)(=O)N2CCOCC2)c1
 : nt	-17%	nt	0.2%
CCOC(=O)C1=C(C)NC(SCC(N)=O)=C(C#N)C1c1cccs1 (centres undefined)
 : -7	2%	6%	1.1%
Cc1cc(C)nc(N2C(=O)CC(C(=O)O)NC2=NCCc2c[nH]c3ccccc23)n1 (centres undefined)
 : 1	-5%	-3%	1.5%
CCOC(=O)Cc1nc(-c2cccc(C(F)(F)F)c2)no1
 : -4	2%	-5%	-0.7%
COc1nc(NCc2cccnc2)nc(OC)n1
 : -26	2%	-8%	2.2%
N#Cc1c(N)sc(=S)c2c1CCN(Cc1ccccc1)C2
 : 0	nt	2%	nt
Cc1ccc(SCCC(=O)NCc2ccncc2)cc1
 : 9	1%	-6%	0.9%

Carrying on:
Values in the order: GLA inh pH 4.5	Rango release inh	miR-21 reporter	Rango-impB inh
Cc1cc(C)cc(N(C(C)C(=O)NCc2ccc3c(c2)OCO3)S(C)(=O)=O)c1 (centres undefined)
 : 1	12%	-2%	-1.4%
Cc1ccccc1OCCn1cc(/C(N)=N/O)c2ccccc21
 : 5	-2%	25%	-3.3%
CCOc1cc(C(=O)NCc2ccc(F)cc2)ccc1OCC(=O)N1CCCCC1
 : nt	-7%	nt	-0.4%
Cc1ccc(-n2c(-c3ccncc3)n[nH]c2=S)c(C)c1
 : ?	-3%	-4%	0.0%

Screening results: PubChem, National Center for Advancing Translational Sciences (NCATS)

Some of the compounds tested; count on the stated rates, not on these rows.
